From PubChem
FPR ligand = human FPR ligand, with FPRL1 counter-screen. P21462. FPR-expressing cells, fluorescent ligand binding, flow cytometry. inhibition, %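 (tested at 6.7 µM)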. actives 0.74% (n = 24,000). AID 440;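 further: 0% = buffer wells and 100% = receptor blocker peptide wells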
Target sequence (P21462 whole entry, looked up): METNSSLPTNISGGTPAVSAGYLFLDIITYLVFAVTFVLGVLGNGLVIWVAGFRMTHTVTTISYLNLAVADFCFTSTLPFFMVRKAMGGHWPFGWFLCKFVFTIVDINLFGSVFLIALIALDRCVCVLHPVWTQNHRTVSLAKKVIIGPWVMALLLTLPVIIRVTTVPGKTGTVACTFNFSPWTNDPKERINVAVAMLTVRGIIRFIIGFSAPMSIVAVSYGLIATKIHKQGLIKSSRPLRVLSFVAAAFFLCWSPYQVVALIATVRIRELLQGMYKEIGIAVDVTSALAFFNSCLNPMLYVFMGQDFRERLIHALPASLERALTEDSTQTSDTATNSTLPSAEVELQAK
VCAM-1 imaging = inhibitors of TNFa-induced VCAM-1 surface display, imaging, high-content imaging, pooled HUVEC, TNFa stimulus (AID 456) | HUVEC TNFa-induced VCAM-1 surface expression, immunofluorescence imaging; numbers were filed only for top-ranked candidate wells | inhibition, % at 5 µM; hits with a dose series show IC50 in µM | actives 0.2% (n = 10,000);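 active means top tenth filtered wells with inhibition above zero that passed visual or statistical confirmation; inactive means the rest, including hits rejected on review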;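 further: 0% = stimulated vehicle wells and 100% = unstimulated cells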
VCAM-1 inhibition = inhibitors of TNFa-induced VCAM-1 surface display, cell-based, plate reader, pooled HUVEC, TNFa stimulus (AID 454); actives 0.2% (n = 10,000); HUVEC TNFa-induced VCAM-1 surface immunofluorescence, plate reader; numbers were filed only for top-ranked candidate wells; inhibition, % at 5 µM;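 active means compound among top-ranked inhibitors of TNF-induced VCAM-1 adhesion protein staining, with the hit upheld by image or statistical review; inactive means the rest, including hits rejected on review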;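 further: 0% = TNFa with vehicle and 100% = cells without TNFa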
FPRL1 ligand = human FPRL1 ligand, with FPR counter-screen. P25090. FPRL1-expressing cells, fluorescent ligand binding inhibition, flow cytometry. inhibition, %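 (tested at 6.7 µM)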. actives 0.3% (n = 24,000). AID 441;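 further: 0% = buffer alone and 100% = receptor blocker peptide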
Target sequence (P25090 whole entry, looked up): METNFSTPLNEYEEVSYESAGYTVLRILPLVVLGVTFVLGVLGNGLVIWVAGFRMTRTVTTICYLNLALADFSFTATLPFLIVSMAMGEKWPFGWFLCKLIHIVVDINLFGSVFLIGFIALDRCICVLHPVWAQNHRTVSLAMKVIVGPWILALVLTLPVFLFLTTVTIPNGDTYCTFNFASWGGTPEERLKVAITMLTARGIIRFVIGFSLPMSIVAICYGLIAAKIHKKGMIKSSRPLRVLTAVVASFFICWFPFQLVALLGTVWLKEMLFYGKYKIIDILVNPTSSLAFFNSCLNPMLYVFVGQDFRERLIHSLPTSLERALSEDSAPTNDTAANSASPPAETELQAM
VCAM-1 up imaging = boosters of cytokine-driven VCAM-1 levels – imaging, high-content imaging, pooled HUVEC, TNFa stimulus (AID 457); actives 0.2% (n = 10,000); calls only; Pooled HUVEC, TNFa-induced VCAM-1 immunofluorescence imaging; hits of this screen are not shown here;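 active means a top-ranked rise in VCAM-1 staining upheld on image or statistical review; inactive means the rest, including candidates rejected on review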;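 further: compounds tested at 5 µM in the well; cells exposed to compound for 24 hours before fixing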
* hit, by the source's call; i = inactive; nt = not tested or not shown.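 How the source made its calls, unless noted: active means mean above 30%; inconclusive means self-fluorescent; inactive means the rest.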

SMILES | FPR ligand | VCAM-1 imaging | VCAM-1 inhibition | FPRL1 ligand | VCAM-1 up imaging
O=C(C1CCN(S(=O)(=O)c2cccc3nsnc23)CC1)N1CCn2c1nc1ccccc12 | 3.6 | nt | nt | -2.3 | nt
O=C(CSc1nnc(C2COc3ccccc3O2)o1)N1CCCc2ccccc21 (configuration not stated) | 4.7 | i | i | -0.7 | i
Nc1ccc(Nc2ccccc2)c(Cl)c1 | -11.1 | nt | nt | 0.9 | nt
O=c1c(O)c(-c2ccc(O)cc2O)oc2cc(O)cc(O)c12 | 4.1 | i | i | -7.6 | i
COc1ccc(-n2c(Cc3cc(=O)[nH]c(=O)[nH]3)nnc2SCC(=O)N2CCCC2)cc1 | 1.8 | nt | nt | 3.1 | nt
Cc1cccc(N(C(=O)Nc2ccccc2)C2=NCC(C)S2)c1 (configuration not stated) | -18.3 | nt | nt | -9.8 | nt
COc1cccc2cc(C(=O)N3CCN(c4ccc(C)cc4C)CC3)c(=O)oc12 | -3.1 | i | i | 1.9 | i
COc1ccc(N(CC(=O)Nc2ccc3c(c2)OCCO3)S(=O)(=O)c2c(C)nn(C)c2C)cc1 | -0.4 | nt | nt | -5.9 | nt
Cc1nc(SCC(=O)NCc2ccco2)c2c(C)c(C)sc2n1 | 1.0 | i | i | -5.5 | i
CCOC(=O)c1[nH]c2ccc(Br)cc2c1NC(=O)CCN1CCC(C(=O)OCC)CC1 | 7.9 | i | i | -1.3 | i
Nc1cc(N)nc(SCc2ccccc2)n1 | -3.1 | i | i | 0.5 | i
O=C(C1=C(O)C(=O)N(CCCN2CCOCC2)C1c1ccncc1)c1cc2ccccc2o1 (configuration not stated) | -3.9 | nt | nt | -6.3 | nt
O=C(Cc1ccccc1)Nc1nnc(-c2cccs2)s1 | -1.2 | i | i | 0.8 | i
CCOc1ccc(NC(=O)c2ccccc2O)cc1 | 3.5 | i | i | -4.5 | i
CC1CCCC(NC(=O)CCn2c(=O)oc3ccccc32)C1C (configuration not stated) | 1.8 | nt | nt | 5.0 | nt
COc1ccc(NC(=O)NCCCN2CCCCC2C)cc1 (configuration not stated) | -0.1 | nt | nt | -1.2 | nt
COc1ccc(S(=O)(=O)N(C)c2ccc(C(=O)N3CCOCC3)cc2)cc1 | 3.4 | i | i | 5.6 | i
CCN1CCN(C(=O)c2cc3c(=O)oc4ccc(C)cc4c3s2)CC1 | 1.8 | nt | nt | -6.3 | nt
Oc1[nH]c2ccccc2c1/C=N/c1nccs1 | -3.6 | nt | nt | -12.3 | nt
COc1ccc(C(=O)NCc2nnc(SCC(=O)Nc3cccc(C(F)(F)F)c3)o2)cc1OC | -0.7 | nt | nt | 8.8 | nt
CC1CCN(CCNC(=O)C2CCCN(S(=O)(=O)c3cccc4nonc34)C2)CC1 (configuration not stated) | 1.9 | nt | nt | 10.1 | nt
CC(C)N(O)C(=O)NC(C)(C)C | -5.0 | i | i | 1.7 | i
Cc1nc2ccc(S(=O)(=O)NC(C(=O)N3CCCC3)C(C)C)cc2s1 (configuration not stated) | 4.7 | i | i | 1.8 | i
COc1ccc(NC(=O)CC2Oc3ccccc3NC2=O)cc1 (configuration not stated) | -7.1 | i | i | -0.8 | i
Cc1ccc(F)cc1NC(=O)Cc1nn(C)c(=O)c2ccccc12 | 3.5 | i | i | 1.8 | i
Cn1c(-c2ccccc2)c(CCO)c2ccccc21 | -10.6 | i | i | -8.9 | i
COc1ccc(C(C(=O)OC(C)CN(C)C)c2ccccc2)cc1 (configuration not stated) | -6.2 | nt | nt | -0.9 | nt
O=C(C1CCCN(S(=O)(=O)c2cnc[nH]2)C1)N(CCc1ccccc1)Cc1ccccc1 (configuration not stated) | -2.0 | nt | nt | -0.4 | nt
Cc1cc(Cn2ccnc2)c(C)cc1Cn1ccnc1 | -0.7 | i | i | -0.6 | i
CC(C)CC(NC(=O)OC(C)(C)C)C(=O)NC(C(=O)N1CCCC1C(N)=O)C(C)C (configuration not stated) | -3.5 | i | i | -3.5 | i

Part of the list above, with two lines to a compound.
Each structure is followed by: FPR ligand | VCAM-1 imaging | VCAM-1 inhibition | FPRL1 ligand | VCAM-1 up imaging
- CC1CCN(CCNC(=O)C2CCCN(S(=O)(=O)c3cccc4nonc34)C2)CC1 (configuration not stated)
→ 1.9 | nt | nt | 10.1 | nt
- CC(C)N(O)C(=O)NC(C)(C)C
→ -5.0 | i | i | 1.7 | i
- Cc1nc2ccc(S(=O)(=O)NC(C(=O)N3CCCC3)C(C)C)cc2s1 (configuration not stated)
→ 4.7 | i | i | 1.8 | i
- COc1ccc(NC(=O)CC2Oc3ccccc3NC2=O)cc1 (configuration not stated)
→ -7.1 | i | i | -0.8 | i
- Cc1ccc(F)cc1NC(=O)Cc1nn(C)c(=O)c2ccccc12
→ 3.5 | i | i | 1.8 | i
- Cn1c(-c2ccccc2)c(CCO)c2ccccc21
→ -10.6 | i | i | -8.9 | i

Additional entries follow.
SMILES | FPR ligand | VCAM-1 imaging | VCAM-1 inhibition | FPRL1 ligand | VCAM-1 up imaging
Cc1c(NC(=O)C2CCCNC2=O)c(=O)n(-c2ccccc2)n1C (configuration not stated) | -11.9 | i | i | 0.8 | i
Cc1ccc(Cn2c(CN3CCOCC3)nc3c2c(=O)n(C)c(=O)n3C)cc1 | 3.1 | i | i | 6.2 | i
CCOC(=O)CSc1nc2ccsc2c(=O)n1C1CCN(C(=O)OCC)CC1 | 3.1 | nt | nt | 7.9 | nt
CC1CCCN(C(C(=O)Nc2ccc3c(c2)OCO3)c2ccccc2)C1 (configuration not stated) | 0.2 | nt | nt | -2.7 | nt
O=C(CN(CC1CCCO1)C(=O)CCC(=O)Nc1ccccn1)NCC1CCCO1 (configuration not stated) | 6.4 | i | i | 0.2 | i
CCCCCn1c(=N)n(CC(O)COc2ccccc2OC)c2ccccc21 (configuration not stated) | -2.5 | nt | nt | 2.2 | nt
O=C(/C=C/c1ccccc1)c1ccccc1 | 11.0 | i | i | -1.4 | i
O=C1c2cccnc2C(=O)N1Cc1ccc(F)cc1 | 0.0 | nt | nt | 9.9 | nt
CCc1nc(SCC(=O)Nc2nccs2)c2oc3ccccc3c2n1 | -6.5 | i | i | 8.6 | i
OCCN1CCN(CCCN2c3ccccc3Sc3ccc(C(F)(F)F)cc32)CC1 | 5.0 | i | i | 2.5 | i
Cc1nn(Cc2ccccc2Cl)c(C)c1NC(=O)C1C2CCC(O2)C1C(=O)O (configuration not stated) | -5.7 | i | i | 0.3 | i
O=C(NCc1ccc(F)cc1)c1cc(-c2ccco2)on1 | -2.5 | i | i | 3.4 | i
Cc1cc2oc(C(=O)NC3CCS(=O)(=O)C3)c(C)c2cc1C (configuration not stated) | 48.4* | i | i | 51.2* | i
CC(=O)[C@@]1(O)CC[C@H]2[C@@H]3CCC4=CC(=O)CC[C@]4(C)[C@H]3[C@@H](O)C[C@@]21C | 0.4 | i | i | -1.8 | i
COc1ccc(N(CC(=O)Nc2ccc(C)cn2)S(=O)(=O)c2c(C)noc2C)cc1 | 2.9 | nt | nt | -2.8 | nt
CC(C)OC(=O)c1cccc(C(=O)OCc2ccco2)n1 | 6.5 | nt | nt | -3.0 | nt
COc1ccc2[nH]c3c(=O)n(CCCCC(=O)N4CCC(C(N)=O)CC4)c(=S)[nH]c3c2c1 | 0.3 | nt | nt | 0.5 | nt
CSc1ncc(Cl)c(C(=O)Nc2ccc(S(=O)(=O)N3CCOCC3)cc2)n1 | -2.5 | i | i | -1.5 | i
CCCCN(CC)CCCNC(=O)c1cc2c(=O)n(C)c3ccccc3c2n1C | 1.2 | i | i | 3.4 | i
COc1ccc(OCC(O)CN2CCCCC2)cc1 (configuration not stated) | -4.4 | nt | nt | 9.5 | nt
CCOCCOC(=O)c1[nH]c2c(c1C)C(=O)CC(c1ccc(N(C)C)cc1)C2 (configuration not stated) | 2.5 | nt | nt | -3.1 | nt
Cc1nnc2ccc(N3CCC(C(N)=O)(N4CCCCC4)CC3)nn12 | -1.9 | nt | nt | 0.0 | nt
COc1cc(C2c3sc(=O)[nH]c3SC3C4CCC(C4)C23)ccc1O (configuration not stated) | 11.3 | nt | nt | -6.8 | nt
O=C1c2ccccc2C(=O)N1OCc1ccccc1 | 5.3 | i | i | 1.6 | i
CCOC(=O)N1CCN(C(=O)Cn2nc(C)c3sc4ccccc4c3c2=O)CC1 | -7.5 | nt | nt | -4.7 | nt
CCOC(=O)c1ccc(NC(=O)Cn2cccc2)cc1 | 1.1 | nt | nt | -3.5 | nt
COc1ccc2nc3oc(C(=O)N4CCN(c5ccccc5F)CC4)cc3cc2c1 | -4.0 | nt | nt | -4.3 | nt
O=c1[nH][nH]c(=O)c2cc(N3CCCC3)ccc12 | 0.0 | nt | nt | -4.8 | nt
COCCNC(=O)CSc1nc2ccccc2c(=O)n1CC1CCCO1 (configuration not stated) | -0.6 | nt | nt | 8.1 | nt
Cn1c(=O)[nH]c(=O)c2c1nc(N1CCCC1)n2CC(O)COc1ccccc1 (configuration not stated) | 2.0 | nt | nt | 2.5 | nt
COC(=O)c1ccc(NC(=O)CN(c2ccc(C)cc2)S(=O)(=O)c2c(C)n[nH]c2C)cc1 | 3.5 | nt | nt | -2.8 | nt
CCc1nnc2n1N=C(c1ccc(-c3ccc(Cl)cc3Cl)o1)CS2 | 5.4 | i | i | -2.2 | i
COC(=O)c1ccc2c(c1)N(Cc1ccccc1F)C(=O)c1ccccc1S2=O (configuration not stated) | -3.0 | nt | nt | -2.2 | nt
CCCS(=O)(=O)N1CCCC(C(=O)N2CCOCC2)C1 (configuration not stated) | 0.4 | nt | nt | 1.4 | nt
CC(=O)c1c(N)[nH]c(-c2ccccc2)nc1=S | -4.3 | nt | nt | 6.8 | nt
CCOCCCNC(=O)C1CCN(c2cc(C)nc3c(-c4ccc(OC)c(OC)c4)c(C)nn23)CC1 | 2.5 | nt | nt | 9.2 | nt
CC(C)CCN1CC(C(=O)NC(C)C)CC1=O (configuration not stated) | -4.0 | nt | nt | 6.4 | nt
CCCS(=O)(=O)N1CCCC(C(=O)NCc2ccco2)C1 (configuration not stated) | -0.4 | nt | nt | 0.6 | nt
N#CCCCN1C(=O)C(O)(CC(=O)c2ccc3c(c2)OCCO3)c2ccccc21 (configuration not stated) | -9.4 | i | i | -7.1 | i
CCS(=O)(=O)N1CCC(C(=O)NCc2cccnc2)CC1 | -1.0 | nt | nt | -2.5 | nt
CCn1c(SCc2cccc(C(F)(F)F)c2)nnc1-c1ccco1 | -0.5 | i | i | -5.2 | i
CCC(C)NC(=O)c1cc(-c2ccccc2O)on1 (configuration not stated) | -2.9 | nt | nt | 3.3 | nt
CC1(C)C2CCC1(C)C(OC(=O)CSc1nc(N)cc(=O)[nH]1)C2 (configuration not stated) | -4.5 | i | i | -4.3 | i
O=C(CCn1c(=O)oc2ccccc21)N(Cc1ccccc1)c1ccccn1 | 0.8 | nt | nt | -2.6 | nt
O=C(Cn1cccc1C(=O)c1ccccc1)NCc1ccccn1 | -0.9 | nt | nt | -1.7 | nt
O=C(CCn1c(=S)oc2ccccc21)Nc1ccc2c(c1)OCCO2 | 6.7 | nt | nt | 5.6 | nt
CCOC(=O)c1oc2ccccc2c1NC(=O)c1cccs1 | -2.1 | nt | nt | -9.1 | nt
CC(=O)N1CCc2cc(S(=O)(=O)Nc3ccccc3N3CCN(C)CC3)ccc21 | 3.1 | nt | nt | 3.2 | nt
CCN1CCCC1CNC(=O)CCNC(=O)c1cc(OC)c(OC)c(OC)c1 (configuration not stated) | 6.9 | nt | nt | 8.2 | nt
COc1cc(/C=N/n2cnnc2)ccc1OCC(=O)N1CCOCC1 | 6.9 | i | i | 3.8 | i
(listing goes on)
SMILES | FPR ligand | VCAM-1 imaging | VCAM-1 inhibition | FPRL1 ligand | VCAM-1 up imaging
O=C(OCC#CCSc1nnc(-c2ccccc2)o1)c1cccs1 | -2.7 | i | i | 6.9 | i
COc1ccc(-c2cc(C(F)(F)F)nc(NCc3ccco3)n2)cc1OC | 7.4 | nt | nt | 12.9 | nt
COc1ccc(Br)cc1CNC(=O)C1CCC(=O)N1C(C)C (configuration not stated) | -4.3 | nt | nt | 0.4 | nt
CCOc1ccc(-c2nnc(SCC(=O)N3CCOCC3)o2)cc1 | 3.4 | nt | nt | 3.2 | nt
COc1ccc(C2C3=C(CCCC3=O)Nc3nc(C(F)(F)F)nn32)c(OC)c1OC (configuration not stated) | -3.0 | nt | nt | 2.3 | nt
Cn1cccc1Cc1nnc(SCC(=O)NC2CCCC2)n1-c1ccc(F)cc1 | -11.8 | nt | nt | -3.2 | nt
COc1ccc(-n2nnc3c(SCC(=O)Nc4ccc5c(c4)OCCO5)ncnc32)cc1 | -5.3 | nt | nt | -5.1 | nt
O=C(CSc1c[nH]c2ccccc12)N1CCOCC1 | -0.1 | nt | nt | -0.8 | nt

A portion of the library; the hit share may differ from the screen's.
